Six1-Eya2 inh: Six1/Eya2 interaction inhibition. AID 651725. Q15475+O00167. AlphaScreen GST-Six1/His-Eya2 binding, biochemical; active compounds read low; control for the full effect not named in the record. hit rate 0.56% among 360,000. activity change, % (no concentration beside the values); in the data active = activity change below about -65%; inconclusive = about -30% to -65%; inactive = above about -30%; also: % is scaled to controls: 0 for no effect and ±100 for the full control effect
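Compounds are tested against tagged Six1 and Eya2 proteins bridged by glutathione donor and nickel acceptor beads; after a one-hour incubation at 37 °C without light, AlphaScreen emission is recorded.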
D2 PAM: potentiates the human D2 dopamine receptor allosterically | P14416 | DiscoveRx D2 beta-arrestin cells, luminescence, 90 min; 100% = 57 uM dopamine signal | potentiation, % (no concentration beside the values) | hit rate 0.23% among 360,000; active = potentiation of 50% or more; inconclusive = 30% to 50%; inactive = 30% or less;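 also: compound concentration not given in the record; tested on top of an EC20 dose of dopamine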
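PathHunter beta-arrestin assay in DiscoveRx D2 cells. Compounds were added with an EC20 of dopamine (50 nM final) for 90 min at 37 deg C. Luminescence was read 1 h after detection reagent, with 57 uM dopamine as the EC100 control.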
CtBP-E1A blk: inhibitors of CtBP/E1A interaction; AID 651724; AlphaScreen GST-E1A/His-CtBP binding, 1536-well; active compounds read low; control for the full effect not named in the record; hit rate 0.49% among 340,000; activity change, % (test concentration not listed); in the data active means activity change below about -65%; inconclusive means about -30% to -65%; inactive means above about -30%; also: % is scaled to controls: 0 for no effect and ±100 for the full control effect
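Protein mix (5X: 125 nM each GST-E1A, His-CtBP) was incubated with pinned compound 2 h at 37 deg C in dark, in 50 mM Tris pH 8.0 buffer with 300 mM NaCl. Glutathione donor and nickel acceptor beads followed; AlphaScreen signal read after 1 h.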
D2 ag: human D2 receptor agonism in beta-arrestin assay; DiscoveRx PathHunter D2 beta-arrestin, luminescence, 90 min; 100% = 57 uM dopamine signal; P14416; AID 624465; hit rate 0.084% among 360,000; activation, % (no concentration beside the values); in the data active = activation above about 40%; inconclusive = about 15% to 40%; inactive = below about 15%; also: compound concentration not given in the record; the text of the record calls up to 30% inactive
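DiscoveRx PathHunter D2 beta-arrestin cells (2,100/well) attached overnight, then compound-stimulated 90 min at 37 C in HBSS/10 mM HEPES/0.1% Tween-20 buffer; beta-galactosidase complementation read by luminescence after 1 h at ambient temperature. Dopamine 57 uM final (EC100) as control.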
TRPML1 agonist: human mucolipin-1 channel agonism; hit rate 0.12% among 410,000; TRPML1-expressing cells, Ca2+ dye fluorescence, FDSS; host cell line not named in the record; reference of the full effect not given here; AID 624414; activation, % (concentration not given with the values); in the data active = activation above about 50%; inconclusive = about 30% to 50%; inactive = below about 30%; also: 0% is about no effect; the text of the record puts the active cut at 80%
Target sequence (Q9GZU1 whole entry, looked up): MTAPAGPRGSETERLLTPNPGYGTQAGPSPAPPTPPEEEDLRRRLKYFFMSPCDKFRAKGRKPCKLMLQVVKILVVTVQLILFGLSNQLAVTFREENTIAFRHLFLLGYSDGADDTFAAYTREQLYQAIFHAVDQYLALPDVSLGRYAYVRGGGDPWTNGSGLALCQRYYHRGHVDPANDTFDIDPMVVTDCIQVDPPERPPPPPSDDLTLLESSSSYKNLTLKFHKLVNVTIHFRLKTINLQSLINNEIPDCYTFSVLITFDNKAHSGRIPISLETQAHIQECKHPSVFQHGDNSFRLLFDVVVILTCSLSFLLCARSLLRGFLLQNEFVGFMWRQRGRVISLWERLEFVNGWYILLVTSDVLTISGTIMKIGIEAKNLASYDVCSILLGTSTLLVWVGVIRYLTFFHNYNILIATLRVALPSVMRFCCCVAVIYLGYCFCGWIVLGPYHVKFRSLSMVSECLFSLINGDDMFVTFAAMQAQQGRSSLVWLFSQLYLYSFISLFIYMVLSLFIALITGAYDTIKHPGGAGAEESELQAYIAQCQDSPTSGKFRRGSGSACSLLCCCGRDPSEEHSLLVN
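Agonist activity was taken from a 110 s kinetic Ca2+ dye read on the FDSS after pinning compounds onto TRPML1-DL cells. The cells were seeded at 1,500/well with Tet inducer, incubated about 16 h, then dye-loaded at room temperature.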
PINK1 expr mod: PINK1 expression modulation; AID 624263; hit rate 0.2% among 410,000; PINK1 immunofluorescence, high-content cytometry, 24 h; Potency, µM (titrated, usually from 76.6 µM), inactives show at the top dose activation (PINK1 increase), usual class: activators; active = well fitted activation curve with a large enough effect; inconclusive = small, poorly fitted or top-dose-only effect; inactive = flat fitted curve, though single readings scatter; cell line not stated here;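 also: potency is read from the fitted curve at half-maximal effect; % of control where 0% means no effect; nearly all actives have a fitted effect of over 65% in size; a mitochondrial uncoupler was the plate control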
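Readout is PINK1 immunofluorescence, quantified alongside mitochondrial, cell and nuclear markers by laser-scanning microplate cytometry. Cells from a stable line were exposed to compound titrations (5 concentrations) for 24 hours, with CCCP controls.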
An asterisk follows results filed as active; ? = inconclusive; . = no result given; & = joins results of further samples; [ ] = another dose, or the depositor's remark.

Every second line gives: Six1-Eya2 inh	D2 PAM	CtBP-E1A blk	D2 ag	TRPML1 agonist	PINK1 expr mod
> Cc1ccc(-c2nc(N)c3c(-c4ccc(C)cc4)nn(C(C)(C)C)c3n2)cc1
  0	-2	5	-2.5	0.9	?
> CCCCN(C(=O)CSCC(=O)Nc1cccc(C)c1)c1c(N)n(CCCC)c(=O)[nH]c1=O
  5	4	-7	-0.5	0.8	-4.6%
> O=C(O)c1ccc(Cn2cc(Cl)cn2)cc1
  4	14	5	-1.4	-0.7	0.3%
> COC(=O)c1ccc(NCCc2csc(-c3ccc(C)cc3)n2)c([N+](=O)[O-])c1
  -2	-13	3	-3.1	-0.3	.
> O=C(CN1CCCC1)Nc1c(C(=O)C2CC2)oc2ccccc12
  2	-13	-11	-0.7	-0.3	5.5%
> Cc1ccc(-c2n[nH]c(=O)c3ccccc23)c(C)c1
  -9	1	10	0.5	-0.6	1.7%
> O=S1(=O)CCN(Cc2ccccn2)CC1
  6	?	.	1.7	1.1	0.9%
> O=C(NCC1CCCO1)c1ccc2c(c1)C(=O)N(c1cccc([N+](=O)[O-])c1)C2=O (stereo not given)
  0	-3	-4	-4.6	0.5	0.4%
> Cc1cc(-c2[nH]nc3c2C(c2ccc(Cl)cc2)C(C#N)=C(N)O3)c(C)s1 (stereo not given)
  0	1	-11	-1.2	-0.2	-1.1%
> COC(=O)N1CCCCC1c1cc(C(=O)Nc2ccc3c(c2)OCO3)no1 (stereo not given)
  -6	-14	1	-3.6	1.0	1.1%
> CCOc1ccc(C(=O)Nc2cccc3ncccc23)cc1Br
  -23	-2	-8	-12	0.8	11%
> O=C(CCN1C(=O)/C(=C\c2ccco2)SC1=S)Nc1ccc(C(=O)O)c(O)c1
  ?	-1	.	10	-0.1	2.0%
> COc1ccc2cc(C(=O)C3CCCN(C(=O)c4cc5nc(C)cc(C)n5n4)C3)ccc2c1 (stereo not given)
  0	-9	4	-3.5	0.0	-0.3%
> CC(C)(CNC(=O)c1sc2cc(F)ccc2c1Cl)N1CCOCC1
  0	-6	.	1.8	-0.3	0.2%
> COc1ccc(OCC(=O)N2CCN(C(=O)c3ccccc3)CC2)cc1
  5	12	7	5.8	0.8	-0.3%
> CCOC(=O)C1CCN(C(=O)Cn2nc(C)n3c(cc4cc(C)ccc43)c2=O)CC1
  4	-8	-1	0.0	-1.0&1.0	0.0%&-0.5%
> Cc1cc(S(=O)(=O)NCc2ccccc2)ccc1OCC(=O)NCC1CCCO1 (stereo not given)
  3	-7	3	4.2	?	0.3%
> CCOc1ccc(OCC(=O)OCC(=O)Nc2ccc3[nH]c(=O)[nH]c3c2)cc1
  1	-10	3	-4.9	-0.3	0.1%
> COc1ccccc1NC(=O)C1=C(C)Nc2nc(-c3cccs3)nn2C1c1cccnc1 (stereo not given)
  1	2	1	-3.6	-0.1	5.2%
> COc1ccc(C(=O)N2CCCC(c3cc(C(=O)NCc4ccccc4)no3)C2)cc1 (stereo not given)
  0	-9	3	-3.2	-0.9	-0.3%
> Cc1cc(C(=O)OCn2nnc3ccccc3c2=O)c(C)o1
  0	17	0	-1.0	-0.5	1.7%
> COc1ccc(N2CCN(C(=O)c3cc4c(-c5ccc(Cl)cc5)nn(C)c4s3)CC2)cc1
  -8	-3	2	-3.5	0.0	3.8%
> Cc1ccc(CSCCNC(=O)c2ccc(NS(C)(=O)=O)cc2)cc1
  5	-5	6	5.3	2.1	2.9%
> O=C(O)C1CC(O)CN1c1nc(Cl)ccc1[N+](=O)[O-] (stereo not given)
  12	-7	0	-3.5	-0.3	-0.1%
> Cc1cccc(NC(=O)CSc2nnc(-c3ccc(S(=O)(=O)N4CCCC4)cc3)o2)c1
  3	-11	4	-0.1	0.5	4.7%[38.3 µM]
> Cc1cccc[n+]1CC(=O)c1ccc(NC(=O)c2ccccc2)cc1
  -8	-2	.	0.7	-1.0	12%
> COc1ccc(-c2ccccc2)c2oc(-c3ccco3)cc(=O)c12
  -1	-7	.	-1.0	-0.2	1.6%
> CCCCN1C(=O)C(CC(=O)NCc2cccc3ccccc23)CC(C(=O)N2CCCCCC2)=C1C (stereo not given)
  12	.	-12	.	-0.4	-0.9%
> Cc1ccc2nsnc2c1S(=O)(=O)Nc1ccccc1C(=O)O
  -5	-7	.	-2.1	0.4	1.3%
> CCN(CC)c1ccc(NC(=O)CCc2nnc3ccc(N4CCCCC4)nn23)c(C)c1
  -4	-3	-9	-2.6	2.7	-1.7%
> CCCCOc1ccc(S(=O)(=O)N2CCN(C)CC2)cc1
  12	0	0	-4.2	-0.2	-0.4%
> O=C(/C=C/Nc1cccc(C(F)(F)F)c1)c1ccco1
  0	-7	-7	-1.3	1.1	1.9%
> Cc1cccc(C(=O)OCC(=O)Nc2ccc3c(c2)OCCO3)c1O
  1	-2	10	3.3	0.3	9.3%
> O=C(CSc1ccc(F)cc1)N1CCOCC1
  12	-8	.	-0.9	3.9	4.3%
> CCOC(=O)c1[nH]c2ccccc2c1NC(=S)Nc1cccc(C)c1C
  -2	-13	-2	-3.8	-0.8	0.8%
> O=C(COC(=O)c1cccc(Cl)c1Cl)NC1CCCC1
  3	-3	-1	-0.8	-1.9	-1.0%
> CCOc1ccc(NC(=O)c2ccc(Cl)c(NC(=O)c3ccco3)c2)cc1
  7	-11	6	-2.3	-0.7	3.1%
> CCOC(=O)CSc1nc2c(sc(=S)n2Cc2ccco2)c(=O)n1-c1ccccc1
  -17	-8	-14	-2.3	1.4	15%[38.3 µM]
> COC(=O)C[C@H]1C[C@H]2c3cc(NC(=O)Cc4ccncc4)ccc3O[C@H]2[C@@H](CO)O1
  7	3	5	-1.4	-0.4	4.1%
> O=C(NCc1ccco1)C(=O)NCc1ccccc1Cl
  22	0	0	-2.4	0.2	-0.2%

Going on with the list:
SMILES	Six1-Eya2 inh	D2 PAM	CtBP-E1A blk	D2 ag	TRPML1 agonist	PINK1 expr mod
CCn1c2ccccc2c2cc(NC(=O)C/C(C)=N/NC(=O)c3ccccc3N)ccc21	-13	-34	2	-2.7	-0.6	6.8%
O=C(CN1CCCCCC1)Nc1ccc(Br)cc1[N+](=O)[O-]	-24	-7	3	-0.2	0.0	1.7%
Cc1ccc(Nc2nc(-c3c(C)nc4ncccn34)cs2)cc1	-75*	-41	-90*	0.4	0.5	4.0%
CC(C)c1ccc(NC(=O)/C(C#N)=C/c2ccncc2)cc1	1	4	0	0.8	1.0	-0.9%
CCOc1ccccc1NC(=O)c1ccoc1C	0	-20	-2	-1.4	0.4	-0.9%
CCCCN(CC)S(=O)(=O)c1ccccc1	8	-14	5	2.1	0.5	.
CCn1nc(C(=O)Nc2cccc3ccccc23)c(Cl)c1Cl	-2	-22	3	-3.4	0.3	-0.1%
O=C(c1ccc(Br)cc1)c1cn[nH]c1-c1ccccc1O	-6	-6	-9	-1.3	2.1	3.4%
CCCC(=O)Nc1ccc(NC(=O)c2ccco2)cn1	-3	-1	-3	-1.0	-0.8	1.1%
Cc1cccc2[nH]c3c(N4CC=C(c5ccc(F)cc5)CC4)ncnc3c12	-22	-5	-4	-1.8	0.1	?

Arranged by count of non-hydrogen atoms (ascending): some entries from above.
SMILES	Six1-Eya2 inh	D2 PAM	CtBP-E1A blk	D2 ag	TRPML1 agonist	PINK1 expr mod
CCOc1ccccc1NC(=O)c1ccoc1C	0	-20	-2	-1.4	0.4	-0.9%
CCOC(=O)c1[nH]c2ccccc2c1NC(=S)Nc1cccc(C)c1C	-2	-13	-2	-3.8	-0.8	0.8%
Cc1cccc2[nH]c3c(N4CC=C(c5ccc(F)cc5)CC4)ncnc3c12	-22	-5	-4	-1.8	0.1	?
COc1ccc(C(=O)N2CCCC(c3cc(C(=O)NCc4ccccc4)no3)C2)cc1 (stereo not given)	0	-9	3	-3.2	-0.9	-0.3%

The list continues.
SMILES	Six1-Eya2 inh	D2 PAM	CtBP-E1A blk	D2 ag	TRPML1 agonist	PINK1 expr mod
CCOC(=O)C1=C(C)N=C2SC(C(=O)OC)=CC(=O)N2C1c1ccc(F)cc1 (stereo not given)	-5	-6	-4	-1.7	0.5	8.0%[38.3 µM]
CC(C)(/C=N/O)/[N+]([O-])=C/c1ccco1	7	-12	15	0.7	0.7	1.0%
COc1ccccc1CNS(=O)(=O)c1ccc(Br)s1	3	-4	2	-4.6	2.3	8.4%
CC(C)(C)OC(=O)N1CCN(C(=O)c2[nH]cnc2C(=O)Nc2cccc(Cl)c2)CC1	0	-9	4	-4.8	0.2	1.8%
COc1ccc(N(C(C)C(=O)Nc2ccc(S(=O)(=O)N3CCCCC3)cc2)S(C)(=O)=O)cc1 (stereo not given)	-7	-5	-7	-1.4	-0.1	1.6%
O=C(O)/C=C/c1ccc(S(=O)(=O)N(CCO)CCO)cc1	13	-6	8	-2.4	0.7	-1.0%
CSc1ccccc1NC(=O)COC(=O)CCC(=O)c1ccc(F)cc1	0	-29	-16	-1.7	1.5	-1.3%
COc1ccc(CNC(=O)C2CCN(c3nn4c(=O)cc(C)nc4s3)CC2)cc1	-20	-8	.	3.8	-0.1	-0.7%
COc1ccc(NC(=S)Nc2cccnc2)c(OC)c1	-4	-2	.	-4.0	0.3	-0.2%
CCOc1ccc(-n2c([S-])c(C(=O)Nc3ccc(S(=O)(=O)N4CCOCC4)cc3)[n+]3cc(C(N)=O)ccc23)cc1	-13	-3	-10	1.7	1.1	-0.1%
Cc1ccc(-c2noc(CSc3nnc(-c4ccccc4)n3C)n2)cc1	0	-5	-7	2.9	0.5	-0.9%[38.3 µM]
COC(=O)c1sc(NC(=O)COc2ccccc2OC)nc1C	-3	-1	-11	-2.8	1.4	.
O=C(Cn1ncn2c(cc3sccc32)c1=O)NC1CCCC1	6	-6	.	-3.3	0.6	0.5%
